Bioassay records: PubChem, several laboratories
HNF4A DNA FP – change in binding of human HNF4A to DNA, primary screen, biochemical, fluorescence polarization, FITC-DNA | Hepatocyte nuclear factor 4-alpha (Homo sapiens), P41235 | 1 h | activity change, % at 10 µM | 360,000 tested, 0.3% active | AID 1224865, 2016; in the data active = activity change above about 30%, passing the limit was not always enough;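 note: controls were the assay level and a saturating level of protein; the project sought stronger binding though the title names inhibitors; some compounds called inactive have numbers as strong as hits; positive values seem to mean higher polarization but the record does not say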
Beta2AR agonist – beta2AR agonists driving receptor internalization, primary screen, cell-based, FAP fluorogen, flow cytometry; Beta-2 adrenergic receptor (Homo sapiens), P07550; Am2.2-beta2AR cells; reference of the scale not given here; response, % (concentration not given with the values); 340,000 tested, 0.43% active; AID 504454, 2011;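 active = response above a set limit, near 3 SD of response in nonfluorescent compounds, cut at about 42% in these data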;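 note: stock transfer was 100 nL into about 11 µL; a reference agonist was the positive control; negative values mostly stem from fluorescent compounds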
Vif TR-FRET – inhibitors of Vif binding to APOBEC3G peptide, primary screen, biochemical, TR-FRET, GST-Vif 1-94, biotin-A3G peptide, dose response retest (AID 1117319); TR-FRET GST-Vif / biotin-A3G peptide binding; higher % means a stronger effect; test concentration not given here; strong numbers were not always called active; inhibition, %, or IC50 in µM where a hit was titrated; Virion infectivity factor (Human immunodeficiency virus type 1 group M subtype B (isolate …; 260,000 tested, 0.57% active;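 active = above the screen mean plus three standard deviations and confirmed in dose response; inconclusive = results disagree or hit not tested in dose response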;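 note: Vif residues 1-94 fused to GST binding biotinylated APOBEC3G peptide 110-148; 0% = full assay without inhibitor and 100% = GST in place of GST-Vif; retest series ran down from 100 µM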
E coli growth – E. coli growth inhibition, primary screen, OD600 | Escherichia coli growth, 23 h; stronger effect = lower value | OD600 absorbance (concentration not given with the values) | 330,000 tested, 0.21% active;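 active = OD600 absorbance below the run mean of sample wells minus 3.6 SD, in any replicate, cut at about 0.56 in these data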;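 note: stock transfer was 300 nL into about 60 µL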
A1 inh – caspase 3/7 activation in MEF A1-2A-BIM cells, primary screen, A1 inhibitor project, cell-based, luminescence, HTS | caspase activation, % (no concentration beside the values) | 330,000 tested, 0.066% active | Caspase-Glo 3/7 luminescence, 3 h; percent of clofoctol response, vehicle zero | AID 2462, 2010;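 active = over half of replicate activation scores above 10%, or exactly half above 10 with the replicate mean above 10; inconclusive = replicate mean below 10 yet half the replicates above 10; inactive = over half of replicates below 10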;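 note: wells of about 30 µL received 50 nL stock; many hits fall short of the cut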
UCH37 inh – inhibitors of human UCH37 deubiquitinase, primary screen, biochemical, Ub-AMC cleavage, fluorescence; Ubiquitin carboxyl-terminal hydrolase isozyme L5 (Homo sapiens), Q9Y5K5; inhibition, % (test concentration not listed); 330,000 tested, 0.33% active; purified proteasome/UCH37;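 active = mean of two replicates above 20%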;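 note: 0% = compound-free wells with enzyme and 100% = wells lacking proteasome; stock transfer was 100 nL into about 20 µL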
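Material: Human UCH37 enzyme supplied as purified proteasome complex | Schedule: 30 min preincubation with enzyme, 25 min cleavage at room temperature | Detection: AMC fluorescence 355/460 nm | Measure: % inhibition of Ub-AMC cleavage fluorescence | Controls: Wells without proteasome as full block, compound-free enzyme plus substrate as uninhibited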
LANA-H2A inh – blockers of LANA interaction with H2A/H2B – biochemical, FP readout, HTS, primary screen; inhibition, % (test concentration not listed); 320,000 tested, 0.6% active; cell-free LANA-H2A/H2B peptide, fluorescence polarization; Protein LANA1 (Human herpesvirus 8 type P (isolate GK18)), Q9QR71; in the data active = inhibition mostly above about 10%, no sharp cut-off; inactive = mostly below about 6.7%;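 note: stock transfer was 7.5 nL into about 10 µL; 0% = median of vehicle wells and 100% = median of positive control wells; one replicate is shown; the record names a cut of 25% in any replicate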
Target sequence (Q9QR71 whole entry, looked up): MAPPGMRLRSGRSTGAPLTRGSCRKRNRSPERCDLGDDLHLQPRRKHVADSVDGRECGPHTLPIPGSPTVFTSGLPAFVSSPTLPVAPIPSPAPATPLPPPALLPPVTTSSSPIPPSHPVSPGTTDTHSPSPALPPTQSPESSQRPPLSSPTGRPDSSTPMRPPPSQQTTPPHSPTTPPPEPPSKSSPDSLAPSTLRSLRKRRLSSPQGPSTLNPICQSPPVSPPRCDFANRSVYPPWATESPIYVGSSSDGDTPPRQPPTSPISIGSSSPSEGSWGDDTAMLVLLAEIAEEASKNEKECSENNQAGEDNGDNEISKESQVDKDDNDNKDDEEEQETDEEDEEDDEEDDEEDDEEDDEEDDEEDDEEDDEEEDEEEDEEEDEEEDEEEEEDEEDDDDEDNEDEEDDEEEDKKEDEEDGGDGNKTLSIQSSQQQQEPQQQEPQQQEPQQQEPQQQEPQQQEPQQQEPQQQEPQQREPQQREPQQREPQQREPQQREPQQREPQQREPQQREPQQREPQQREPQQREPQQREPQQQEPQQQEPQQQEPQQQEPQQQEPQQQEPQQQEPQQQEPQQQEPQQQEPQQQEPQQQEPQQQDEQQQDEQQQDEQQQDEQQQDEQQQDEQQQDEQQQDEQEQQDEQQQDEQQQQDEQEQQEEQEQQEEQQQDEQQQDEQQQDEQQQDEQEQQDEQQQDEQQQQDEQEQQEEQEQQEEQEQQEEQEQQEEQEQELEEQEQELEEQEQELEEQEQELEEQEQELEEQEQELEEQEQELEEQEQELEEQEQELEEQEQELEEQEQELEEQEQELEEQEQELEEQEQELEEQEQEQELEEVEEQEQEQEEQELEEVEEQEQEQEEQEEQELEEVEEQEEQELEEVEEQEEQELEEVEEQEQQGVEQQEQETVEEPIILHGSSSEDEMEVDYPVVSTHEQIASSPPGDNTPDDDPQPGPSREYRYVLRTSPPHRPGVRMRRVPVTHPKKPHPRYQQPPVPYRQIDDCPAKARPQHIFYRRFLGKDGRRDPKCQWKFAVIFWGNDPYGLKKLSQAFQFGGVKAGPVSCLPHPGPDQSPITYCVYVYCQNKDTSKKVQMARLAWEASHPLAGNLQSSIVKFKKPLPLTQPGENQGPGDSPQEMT
Active calls of the source: *; i = inactive; ? = inconclusive; . = not tested or not shown.

SMILES	HNF4A DNA FP	Beta2AR agonist	Vif TR-FRET	E coli growth	A1 inh	UCH37 inh	LANA-H2A inh
Cc1sc2nc(SCC(=O)c3cc(C)n(CC4CCCO4)c3C)n(C(C)C)c(=O)c2c1C (stereo unspecified)	0.1	7	-9%	0.72	-0.1	2.1	2.3
COc1ccc(CC(=O)Nc2ccc(/C(C)=N\NC(=O)c3ccc(Br)o3)cc2)cc1	-4.6	-13	-4%	.	.	.	.
Cc1ccc(CNC(=O)C2C3C=CC4(CN(Cc5cccnc5)C(=O)C24)O3)cc1 (stereo unspecified)	-0.2	-1	-4%	0.71	-1.0	3.5	-0.5
CCN(CC)CCOC(=O)c1ccccc1Br	0.2	-1	-14%	0.66	-0.5	4.1	-3.7
O=C(NCC1CC1)c1cc([N+](=O)[O-])cc([N+](=O)[O-])c1	0.8	-5	.	0.64	0.2	4.5	7.1
Cc1ccnc2nc(C(=O)N3CCN(S(=O)(=O)c4ccccc4)CC3)nn12	1.5	8	11%	0.66	0.4	0.6	1.7
Cc1ccc(-c2cc(C(=O)NCCN3CCOCC3)c3ccccc3n2)o1	3.0	8	.	0.73	0.5	i	-4.1
O=C(c1cc(=O)c2cc(Cl)ccc2o1)N1CCN(Cc2ccccc2)CC1	1.4	-12	-1%	0.67	0.7	4.5	1.2
c1ccc2nc(N3CCOCC3)cnc2c1	1.2	-16	1%	0.71	0.8	-3.9	9.9
CCN1C[C@@H]2[C@@H]3C(=O)N(C)C(=O)[C@@H]3[C@](C)(C1=O)N2C(=O)c1ccc(F)cc1	-2.5	-7	.	.	.	3.0	.
O=C(O)C1Cc2[nH]cnc2C(c2cccc([N+](=O)[O-])c2)N1 (stereo unspecified)	-2.9	5	21%	0.65	0.0	-3.2	-4.4
CC1CCN(C(=O)COc2ccc(Nc3ccccc3)cc2)CC1	3.9	-9	33%	0.71	-0.2	3.4	3.0
Cc1ccc(-c2[nH]ncc2/C=N/n2c(C)nc3ccccc3c2=O)cc1	4.3	4	-3%	.	0.4	.	-5.0
CCOC(=O)CSc1nc2ccc(N3CCOCC3)cc2c(=O)n1Cc1ccc2c(c1)OCO2	.	.	?	.	-0.5	.	3.2
CCCCCCCCNC(=O)c1ccc(C)cc1	.	.	14%	0.64	-0.4	0.9	0.4
O=C(O)/C(=C\c1ccccc1OC(F)F)Sc1nnc(-c2ccc(F)cc2)o1	1.6	-1	3%	0.68	2.4	1.0	-4.5
O=C(NCc1ccco1)Nc1ccc(OC(F)(F)F)cc1	-3.7	-1	-4%	0.55	-1.1	6.9	-0.7
COc1ccccc1-n1nc(C)c(-c2ccccc2)c1N	-2.2	0	5%	0.69	-0.4	0.6	4.7
COc1cccc(C2=CC(=O)CC(C)(C)C2)c1	3.5	-10	.	0.7	-0.7	-4.1	3.2
CC1(C)NC(=O)N(CC(=O)OCC(=O)N2CCN(S(=O)(=O)c3ccccc3)CC2)C1=O	2.1	3	0%	0.69	.	3.1	.

3 compounds drawn at random from those above, as already listed:
SMILES	HNF4A DNA FP	Beta2AR agonist	Vif TR-FRET	E coli growth	A1 inh	UCH37 inh	LANA-H2A inh
O=C(c1cc(=O)c2cc(Cl)ccc2o1)N1CCN(Cc2ccccc2)CC1	1.4	-12	-1%	0.67	0.7	4.5	1.2
O=C(NCc1ccco1)Nc1ccc(OC(F)(F)F)cc1	-3.7	-1	-4%	0.55	-1.1	6.9	-0.7
CCCCCCCCNC(=O)c1ccc(C)cc1	.	.	14%	0.64	-0.4	0.9	0.4

(next part)
SMILES	HNF4A DNA FP	Beta2AR agonist	Vif TR-FRET	E coli growth	A1 inh	UCH37 inh	LANA-H2A inh
O=S(=O)(c1ccccc1)c1nc(Nc2cccc(O)c2)sc1Cl	-1.1	10	24%	0.67	0.8	2.2	-2.2
Brc1ccc(-c2nnc(-c3cccnc3)c3conc23)cc1	.	.	.	0.66	-0.7	4.8	-4.0
COc1ccc([C@H]2CC(=O)C=C(c3cc(C)ccc3F)C2)cc1	-1.6	-2	.	.	0.2	2.0	2.6
Cc1cc(C)c(OCCN(C)C)c(Cl)c1	2.1	7	.	0.71	0.5	0.6	-3.4
COc1ccc(C2C(C#N)=C(N)Oc3cccc(O)c32)cc1 (stereo unspecified)	-3.2	-8	.	0.65	0.6	6.0	2.4
Cc1ccccc1CSCCNC(=O)CCSc1ccccc1	1.9	9	2%	0.69	-1.2	2.4	-2.1
O=C(C1CC(=O)N(c2ccc3c(c2)OCCO3)C1)N1CCN(Cc2ccccc2F)CC1 (stereo unspecified)	-1.8	-2	-1%	0.7	-0.1	0.8	-2.6
CN[C@H](C)C(=O)NC[C@H]1O[C@@H](n2cnc3c(N)ncnc32)[C@H](O)[C@@H]1O	-6.8	2	.	0.67	.	0.9	.
O=C(/C=C/c1ccc([N+](=O)[O-])cc1)NCc1ccc2c(c1)OCO2	-3.0	5	.	0.66	-0.5	-1.0	7.3
COc1ccc(CCN2CC34C=CC(O3)C(C(=O)NCc3ccccc3Cl)C4C2=O)cc1OC (stereo unspecified)	-1.4	-1	7%	0.71	0.0	4.3	0.4
CN(CCCC(=O)NCc1ccco1)S(=O)(=O)c1ccccc1	-1.0	14	-1%	0.73	0.2	0.9	-5.2
COc1cccc(C(=O)Oc2cc(C)[nH]c(=O)c2[N+](=O)[O-])c1OC	-1.8	2	-2%	0.73	1.8	6.4	-1.2
CCOc1ccc(CN2CCNC(=O)C2CC(=O)NCCc2cnccn2)cc1 (stereo unspecified)	-1.3	-2	.	0.7	0.4	-2.1	2.6
CSc1ccc(/C=C2\C(=N)N3N=C(CC(=O)N4CCOCC4)SC3=NC2=O)cc1	3.1	7	21%	0.65	0.3	11	-0.5
Cc1cccc(-c2noc(-c3ccc(Cl)cc3[N+](=O)[O-])n2)c1	3.2	-2	.	0.71	-1.8	5.0	-3.4
Clc1ccc(N2COC3c4cccc5cccc(c45)C32)cc1 (stereo unspecified)	-1.2	3	14%	0.71	-0.4	2.3	1.9
CN(C)Cc1c(C(=O)N/N=C/c2ccncc2)nnn1-c1nonc1N	-0.6	-5	2%	.	0.1	.	3.3
N#Cc1ccc(C2=NC(C(F)(F)F)(C(F)(F)F)c3c(n(Cc4ccco4)c(=O)[nH]c3=O)N2)cc1	-0.2	11	9%	0.68	0.7	2.7	-0.4
COCCN=c1scc(-c2cc(OC)ccc2OC)n1/N=C/c1c[nH]c2ccccc12	-1.1	13	9%	.	0.5	.	-1.8
CCO[C@H]1OC(C(=O)N2CCN(Cc3ccc4c(c3)OCO4)CC2)=C[C@@H](C2CC2)[C@@H]1CCCO	2.6	0	.	.	-1.1	-1.5	-2.6
CN(c1ccccc1C(=O)Nc1cccc(Br)c1)S(=O)(=O)c1ccccc1	6.6	0	.	0.69	0.4	1.9	-7.7
O=C(Nc1cc(C(F)(F)F)ccc1N1CCOCC1)c1cccnc1Cl	-3.0	-1	31%	0.75	-0.5	-2.8	2.4
Cc1ccc(-c2c[n+](CC(=O)Nc3ccccc3)c3n2CCC3)cc1	1.4	-7	-5%	0.66	0.2	3.1	0.3
CN(C)CCCN1c2ccc3ccccc3c2Sc2cccc(Cl)c21	-6.9	13	-3%	.	.	.	.
COc1ccc(NCc2nnc(SCC(=O)Nc3cccc(C)c3)o2)cc1	5.0	-2	0%	0.7	1.1	4.1	-1.8
CCOC(=O)c1c(C)[nH]c(C(=O)COC(=O)c2ccc(N3CCCC3=O)cc2)c1C	2.5	20	?	0.7	-0.7	0.7	-0.8
Cc1c(CCC(=O)O)c(=O)oc2cc(OCc3ccc(Br)cc3)ccc12	-3.0	13	-7%	0.71	0.7	-181	-2.8
C[C@H](CO)N1C[C@H](C)[C@@H](CN(C)C(=O)Nc2ccccc2)Oc2c(NS(=O)(=O)c3ccc(F)cc3)cccc2C1=O	1.5	14	.	.	-0.5	1.9	-14
COc1cccc(-c2c(C(=O)N/N=C(\C)COc3ccccc3)nnn2-c2nonc2N)c1	-2.1	-5	6%	.	-0.6	.	3.2
Cc1cc(=O)[nH]c2ccc(Cc3ccccc3)cc12	-2.1	-15	-1%	0.7	.	-0.1	.
CCOc1ccc(NC(=NCc2ccc3c(c2)OCO3)SC2CC(=O)N(c3ccc(C(=O)O)cc3)C2=O)cc1 (stereo unspecified)	-0.2	10	20%	0.64	0.3	0.8	-2.2
COc1ccc(C2=NC(C)(C)Cc3cc(OC)c(OC)cc32)cc1	7.0	-3	.	0.65	0.0	-1.4	-1.4
O=C(Nc1ccccc1C(F)(F)F)NC1CCCCC1	4.5	21	3%	0.66	0.0	-1.3	-5.4
CCc1ccc(Oc2ncnc(N)c2[N+](=O)[O-])cc1	1.3	-7	-9%	0.72	0.8	7.7	-0.3
COc1cc(C(C(=O)NCc2ccccc2)N(C(=O)c2snc(C(N)=O)c2N)C2CCCC2)cc(OC)c1OC (stereo unspecified)	-1.1	-2	.	0.68	0.4	-29	-0.2
COc1ccc(OC)c(NS(=O)(=O)c2ccc3c(c2)CCC(=O)N3)c1	3.7	-5	-2%	0.72	-0.3	4.2	1.2
CCOc1cc(/C=C\c2[nH]c(=O)[nH]c(=O)c2[N+](=O)[O-])ccc1OC(C)CC (stereo unspecified)	.	.	1%	0.66	-1.2	11	1.6
CN(Cc1ccccc1)c1nc(-c2cccc([N+](=O)[O-])c2)nc2ccccc12	-0.6	0	.	0.72	0.3	3.6	.
CC(C(=O)NCC1CCCO1)n1cccc1C(=O)c1ccccc1 (stereo unspecified)	1.8	2	0%	0.72	-0.1	-3.0	-0.4
O=C(CCn1nc(-c2ccccc2)c2ccccc2c1=O)N1CCN(c2ccccc2)CC1	-1.6	18	-3%	0.69	-0.1	4.3	-2.3
CCCCn1c(N)c(N(CC)C(=O)c2cccc(OC)c2)c(=O)[nH]c1=O	-3.1	2	-2%	0.69	-0.9	0.5	0.0
CCOc1ccccc1NC(=O)C(OC(=O)c1ccccc1NS(=O)(=O)c1cccs1)c1ccccc1 (stereo unspecified)	5.4	17	17%	0.72	-0.7	3.7	0.5
COc1cc(C(=O)c2ccccc2)c(OC)cc1C(=O)Nc1ccc(O)cc1	1.2	8	1%	0.63	0.4	-0.3	0.0
COc1ccc(C(=O)Nc2ccc(Cn3ccnc3)cc2)cc1OC	3.4	-3	.	0.72	-1.3	6.0	4.0
CCOc1ccc(/C=N/NC(=O)CN2CCSCC2)cc1	-5.4	6	-2%	.	0.4	.	1.4
O=C1/C(=C\c2ccccc2)CN(C(=O)CCN2CCCCC2)C/C1=C/c1ccccc1	-3.6	18	3%	.	.	.	.
O=C(NCCCN1CCCC1=O)c1ccc2c(c1)ncn2C1CCCCC1	-1.8	-16	.	0.72	-0.2	3.1	2.3
CCn1c(C)cc(/C=C2/SC(=S)NC2=O)c1C	6.1	-1	.	0.69	-2.7	4.1	3.2
CCOc1ccc(OCC)c(S(=O)(=O)NCCOC23CC4CC(CC(C4)C2)C3)c1	0.4	-9	.	0.73	-1.2	6.8	-0.5
Cc1cccc(/C=N\NC(=O)c2ccccc2-n2cccc2)c1	1.5	3	.	.	-0.6	.	0.3
Clc1cccc(Cl)c1COc1ccccc1CNn1cnnc1	-0.5	3	-1%	0.64	1.1	4.1	-4.5

Random draw from the library; about 2.1% have a hit in one of these screens.
